Mtb bLac sens: beta-lactam sensitization of Mtb H37Rv; M. tuberculosis H37Rv growth with meropenem, percent inhibition; hits of this screen are not shown here; inhibition, % at 25 µM; 0.27% of 330,000 active; AID 434955;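 active means about 74% or more and at least 40 points above the plate without the antibiotic, then above 30% in a dose series; inconclusive means first-round hits that could not be retested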;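 further: growth measured after seven days incubation then overnight dye step; 0% = bacteria only wells and 100% = bacteria with antibiotic; twin plates without the antibiotic show which effects depend on it; some results filed as inactive read as strong as hits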
YopH inh: YopH (Yersinia) phosphatase inhibition. fluorescence Ex485/Em525. inhibition, %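 (about 10 µM by stock and volumes)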. 0.16% of 140,000 active. AID 898;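 active means inhibition of 50% or more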;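 further: controls were vehicle for no effect and minimum signal wells for full effect; inactives centre near -20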
RecA intein inh: Mtb RecA intein splicing inhibition; P9WHJ3; cell-free RecA intein splicing, fluorescence; inhibition, %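 (about 9 µM by stock and volumes)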; 0.75% of 290,000 active; AID 2221; in the data active means inhibition above about 30%; inconclusive means no clear call, values can overlap the other calls;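 further: 0% = vehicle wells and 100% = reference inhibitor control wells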
Target sequence (P9WHJ3 whole entry, looked up): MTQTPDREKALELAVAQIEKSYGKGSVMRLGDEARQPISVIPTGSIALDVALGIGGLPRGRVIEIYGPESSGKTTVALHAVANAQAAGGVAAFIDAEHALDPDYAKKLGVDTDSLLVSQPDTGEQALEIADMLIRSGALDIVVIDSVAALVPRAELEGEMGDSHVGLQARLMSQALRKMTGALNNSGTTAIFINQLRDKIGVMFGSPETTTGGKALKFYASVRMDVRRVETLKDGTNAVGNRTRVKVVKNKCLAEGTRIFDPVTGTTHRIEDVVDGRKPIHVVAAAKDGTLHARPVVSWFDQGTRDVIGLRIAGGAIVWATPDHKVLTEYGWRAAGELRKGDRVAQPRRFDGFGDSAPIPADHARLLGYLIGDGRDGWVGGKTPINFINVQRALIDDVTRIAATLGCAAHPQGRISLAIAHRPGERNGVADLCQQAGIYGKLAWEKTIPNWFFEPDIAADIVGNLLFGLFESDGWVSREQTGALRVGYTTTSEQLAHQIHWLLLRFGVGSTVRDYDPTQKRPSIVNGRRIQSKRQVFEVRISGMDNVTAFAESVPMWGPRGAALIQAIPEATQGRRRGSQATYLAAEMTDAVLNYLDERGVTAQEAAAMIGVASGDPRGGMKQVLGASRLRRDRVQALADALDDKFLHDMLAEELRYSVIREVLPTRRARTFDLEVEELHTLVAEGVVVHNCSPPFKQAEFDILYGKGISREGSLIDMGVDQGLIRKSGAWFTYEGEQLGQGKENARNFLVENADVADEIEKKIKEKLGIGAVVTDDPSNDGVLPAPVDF
Mtb growth: M. tuberculosis H37Rv growth inhibitors, H37Rv strain (AID 1626) | 0.95% of 220,000 active | inhibition, % at 10 µM, or IC50 in µM where a hit was titrated | M. tuberculosis H37Rv growth inhibition; higher % means a stronger effect;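 active means confirmed in a dose series; inconclusive means inhibition above 80% but not taken into the dose series; inactive means below 80% or under 30% at every dose of the series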;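 further: bacteria incubated seven days before Alamar blue readout; 0% = bacteria only wells and 100% = bacteria with antibiotic wells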
Arbovirus inh: arbovirus infection inhibition. arbovirus infection cell-based antiviral screen. inhibition, % at 10 µM. 0.37% of 200,000 active;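 active means inhibition from about 30%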;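 further: bluetongue infection of BSR cells; cell survival read as ATP light after 72 h; 0% = infected wells without compound and 100% = uninfected wells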
Arbovirus inh repeat: further read-out of Arbovirus inh, marked with its call; inhibition, %; measured here: 10K subset replicate screen; many hits read low in the repeat;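 first of two repeat runs on a subset; 0% = infected and 100% = uninfected wells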
* marks the source's active call; other numbers are inactive results; ? = inconclusive; / = not tested or not shown. The list is partial; count on the stated rates, not on these rows.

SMILES	Mtb bLac sens	YopH inh	RecA intein inh	Mtb growth	Arbovirus inh	others
Cc1ccc(C(=O)NC=C(Cl)Cl)cc1	-7.3	4.0	0.2	-2.5%	1.0
COc1ccc(-c2noc(-c3ccc(Cl)cc3)n2)cc1	2.6	-32.0	3.1	-0.2%	/
CC(C)CNS(=O)(=O)c1ccc(S(=O)(=O)N2CCN(C3CCCC3)CC2)cc1	0.9	/	-1.9	/	/
Cc1ccccc1NC(=O)COc1ccc(S(=O)(=O)N2CCCC2)cc1C	-5.9	/	0.6	/	/
COc1ccc(S(=O)(=O)Nc2ccc(Cl)cn2)c(C)c1C	2.7	-34.1	-3.7	-3.0%	-5.8
CN1C(=O)c2ccc(C(=O)Nc3nccs3)cc2C1=O	-3.2	/	-3.5	-3.8%	-0.3
CC(=O)c1ccc(S(=O)(=O)N(C)CC(=O)N2CCCCCC2)cc1	-3.5	/	1.5	/	/
Cc1ccc(Nc2nc(N3CCOCC3)nc(N3CCOCC3)n2)cc1Cl	7.7	/	-2.9	/	/
COc1ccc(S(=O)(=O)Nc2ccc(S(=O)(=O)N(C)C)cc2)cc1[N+](=O)[O-]	-5.2	-18.6	-4.9	-1.2%	4.0
CN1C(C(=O)NCc2ccco2)CC2Cn3c(nc4ccccc43)C21 (centres undefined)	-3.4	/	2.8	/	/
CCOC(=O)C1CCN(c2nc(C)nc3c2oc2ccccc23)CC1	10.3	/	5.0	3.4%	-0.8
CC(=O)C12OC1CC1C3CCC4=CC(=O)CCC4(C)C3CCC12C (centres undefined)	-0.7	/	-3.3	/	/
CC(C)=NOCC(=O)Nn1c(COc2c(C)cccc2C)nc2ccccc2c1=O	-0.5	/	-0.4	/	/
O=C1Cc2ccccc2C(c2c(Cl)cccc2Cl)N1 (centres undefined)	0.6	/	4.2	/	/
Cc1ccc(C)c(N2CCN(C(=O)c3ccc(NS(=O)(=O)c4c(C)noc4C)cc3)CC2)c1	-2.6	-32.9	4.7	-2.8%	14.2
CC(=O)N/C(=C\c1ccccc1)C(=O)OC/C=C/c1ccccc1	0.5	/	0.2	/	/
Cc1onc(-c2ccccc2Cl)c1C(=O)Nc1nnc(-c2cccc([N+](=O)[O-])c2)s1	-5.3	-36.9	4.4	6.9%	3.0
Fc1ccc(-c2nnc(-n3nnc4ccccc43)c3ccccc23)cc1	7.7	-27.6	-0.4	-2.4%	/
O=C1CC(c2ccccc2)CC(O)=C1C=NCCN1CCN(C(=S)Nc2cccc(Cl)c2)CC1 (centres undefined)	12.9	11.5	5.2	-3.5%	12.6
NC(N)=NS(=O)(=O)c1ccc(NC(=S)NC(=O)/C=C/c2ccco2)cc1	4.3	2.7	-0.9	-3.8%	-0.9
Cc1cc(C(=O)C(C)OC(=O)c2ccc(NC(=O)CC#N)cc2)c(C)n1-c1ccccc1 (centres undefined)	16.5	/	4.0	/	/
COC(=O)C(C)(C)ONC(=O)Nc1ccc(C)cc1	-3.4	-29.1	-2.6	4.1%	-2.1
COc1ccccc1C(=O)COC(=O)Cn1nc(C)c([N+](=O)[O-])c1C	2.8	/	-4.7	/	/
FC(F)(F)c1nc(-c2cccs2)ncc1-c1nnnn1-c1ccc(Cl)cc1	-0.2	-16.5	14.2	-5.3%	5.3
CC(C)(C)c1ccc(-c2csc(NNC3=NCCCCC3)n2)cc1	-12.1	10.4	2.6	4.8%	-22.5

Continued, starting with the last 7 of the part before.
SMILES	Mtb bLac sens	YopH inh	RecA intein inh	Mtb growth	Arbovirus inh	others
O=C1CC(c2ccccc2)CC(O)=C1C=NCCN1CCN(C(=S)Nc2cccc(Cl)c2)CC1 (centres undefined)	12.9	11.5	5.2	-3.5%	12.6
NC(N)=NS(=O)(=O)c1ccc(NC(=S)NC(=O)/C=C/c2ccco2)cc1	4.3	2.7	-0.9	-3.8%	-0.9
Cc1cc(C(=O)C(C)OC(=O)c2ccc(NC(=O)CC#N)cc2)c(C)n1-c1ccccc1 (centres undefined)	16.5	/	4.0	/	/
COC(=O)C(C)(C)ONC(=O)Nc1ccc(C)cc1	-3.4	-29.1	-2.6	4.1%	-2.1
COc1ccccc1C(=O)COC(=O)Cn1nc(C)c([N+](=O)[O-])c1C	2.8	/	-4.7	/	/
FC(F)(F)c1nc(-c2cccs2)ncc1-c1nnnn1-c1ccc(Cl)cc1	-0.2	-16.5	14.2	-5.3%	5.3
CC(C)(C)c1ccc(-c2csc(NNC3=NCCCCC3)n2)cc1	-12.1	10.4	2.6	4.8%	-22.5
COc1ccccc1NC(=S)NCc1ccc(Cl)cc1	-2.6	/	0.7	/	/
Cc1cccc(C)c1NC(=O)CCCSc1nnc(-c2ccco2)n1-c1ccccc1	-6.4	11.8	1.4	-5.1%	-3.1
CC(C)CC1(C(=O)NCCc2c[nH]c3ccccc23)C=CCN1C(=O)c1ccccc1 (centres undefined)	-6.8	-16.4	2.6	6.9%	-3.2
O=C(CNS(=O)(=O)c1c(F)cc(F)cc1Br)OCC(=O)N1CCCC1=O	-9.5	/	1.7	/	/
Cc1ccc(C)c(S(=O)(=O)c2c[nH]c(=S)[nH]c2=O)c1	-2.5	/	-5.8	/	/
CC1CCN=C(N)S1 (centres undefined)	-3.0	/	0.3	-6.7%	/
Cc1[nH]n(-c2ccccc2)c(=O)c1N=Nc1ccc(F)cc1	93.3	/	-0.8	/	/
COc1ccc(OC)c(N2CC(O)=C(c3nc4ccccc4s3)C2=N)c1	50.2	-51.3	-1.7	12.9%	7.6
Cc1cccc(C)c1OCC(=O)N1CC2(C)CC1CC(C)(C)C2 (centres undefined)	-3.6	1.9	5.3	0.7%	-6.1
COc1ccc(-n2nnnc2SCC(=O)Nc2cc(OC)c([N+](=O)[O-])cc2C)cc1	-3.4	/	3.7	-0.6%	-10.1
CCC(C)(C)NC(=O)CN(Cc1ccccc1)C(=O)CCC(=O)Nc1nccs1	7.0	/	-1.4	/	/
COc1ccc(/C(C)=N\NC(=O)c2ccc(-c3ccccc3)cc2)c(F)c1	2.0	/	2.3	/	/
O=C(CCn1c(=S)oc2ccccc21)Nc1ccccc1F	-2.4	/	-0.7	2.8%	1.1
Cc1noc(C)c1S(=O)(=O)N1CCN(c2ccc(Cl)cc2)CC1	4.8	/	0.8	/	/
Cc1ccc(C(=O)N[C@H](C(=O)N2CCN(c3ccccc3F)CC2)C(C)C)cc1	-9.4	/	2.5	/	/
O=C(COC(=O)c1cc(-c2ccc(F)cc2)nc2ccccc12)NCC1CCCO1 (centres undefined)	5.8	/	0.6	4.8%	8.7
COc1ccc(CNC(C)C(=O)Nc2ccc3ccccc3c2)cc1OC (centres undefined)	-11.9	/	1.0	0.0%	5.6
O=C(NCc1ccc(OC(F)(F)F)cc1)c1cc(-c2ccccc2)nn1CC1CC(c2cccnc2)=NO1 (centres undefined)	49.0	/	6.6	6.8%	/
CCC(C)NC(=O)CSc1nc2ccsc2c(=O)n1-c1ccc(OC)cc1 (centres undefined)	11.1	-2.8	-3.7	-4.7%	4.8
O=C(CCc1nnc(CCc2ccccc2)o1)N1CCCC1c1nccs1 (centres undefined)	-4.4	/	-4.3	-1.4%	3.3
N#Cc1cnc(SCC(=O)Nc2ccccc2C(F)(F)F)nc1N	-4.3	0.6	-1.3	-2.7%	-7.2
CCC(=O)N(CCO)Cc1cc2ccc(C)c(C)c2[nH]c1=O	1.8	0.0	-1.0	-10.4%	6.0
O=C(CCCc1ccccc1)Nc1ccnn1C1CCN(Cc2ccccn2)CC1	?	/	-0.9	/	/
NC(=O)c1ccsc1NC(=O)CN1C(=O)C2CC=CCC2C1=O (centres undefined)	-3.3	-38.4	-0.7	-15.3%	2.1
O=C(NC1CCCCC1)NC1CCN(CC(=O)N2CCOCC2)CC1	2.4	-40.1	1.1	-12.1%	-1.6

Among those listed so far, two have a cyano group.
SMILES	Mtb bLac sens	YopH inh	RecA intein inh	Mtb growth	Arbovirus inh	others
Cc1cc(C(=O)C(C)OC(=O)c2ccc(NC(=O)CC#N)cc2)c(C)n1-c1ccccc1 (centres undefined)	16.5	/	4.0	/	/
N#Cc1cnc(SCC(=O)Nc2ccccc2C(F)(F)F)nc1N	-4.3	0.6	-1.3	-2.7%	-7.2

Next results follow:
SMILES	Mtb bLac sens	YopH inh	RecA intein inh	Mtb growth	Arbovirus inh	others
CCc1cccc(C)c1NC(=O)CN(C)Cc1ccccc1F	2.9	-10.3	2.2	1.7%	-0.6
C/C(N)=C(/C#N)C(=O)COC(=O)CCSc1ccccc1	?	10.2	0.6	-7.4%	6.7
CC1CCCCN1Cc1c(O)ccc2c(=O)c(-c3ccccc3)coc12 (centres undefined)	-1.6	/	-3.3	/	/
CC(C(=O)Nc1ccccc1Br)N1c2cccc3cccc(c23)S1(=O)=O (centres undefined)	-1.7	/	20.7	/	/
Cc1ccc(NC(=O)/C(=C\c2cccnc2)NC(=O)c2ccccc2)cc1	-8.4	/	-2.6	/	/
Cc1ccc(C(=O)CC(Nc2ccc(F)cc2)c2ccccc2)cc1 (centres undefined)	6.0	-19.0	-2.6	3.5%	-3.9
Cc1ccc(-c2nnc(SCC#N)n2N)cc1	-6.3	9.0	5.5	-6.7%	1.0
CC(C)n1cc(/C=N\NC(=O)c2cc3c(ccc4ccccc43)o2)c2ccccc21	/	-13.0	/	27.7%	-4.8
c1coc(CNc2nc3nonc3nc2NCc2ccco2)c1	1.8	-34.3	/	-7.3%	-8.9
CCOC(=O)c1cc(NC(=O)N2CCOCC2)c(C)nc1C	2.8	-14.4	2.3	-1.7%	3.4
N#C/C(=C/c1ccc(-c2cc([N+](=O)[O-])ccc2Cl)o1)C(N)=O	6.0	/	-0.6	/	/
CSc1nsc(SCC(=O)Nc2cccc(C(C)=O)c2)n1	-2.2	-15.8	0.6	-15.7%	-8.9
Cc1nnc(SCc2cc([N+](=O)[O-])cc3c2OCOC3)[nH]c1=O	5.0	/	-2.7	1.1%	/
Cc1ccc(NC(=O)c2cc([N+](=O)[O-])ccc2N2CCOCC2)cc1S(=O)(=O)N(C)C	3.3	/	0.0	-3.5%	/
COc1ccc(CC(NC(C)=O)C(=O)N2CCN(C(=O)Nc3cccc(Cl)c3)CC2)cc1OC (centres undefined)	-8.1	-4.7	2.3	3.4%	3.9
CCc1ccc(N/C(N)=N/c2nc(CSc3ncccn3)cc(=O)[nH]2)cc1	1.9	/	-1.1	-4.5%	-12.6
O=C(Cc1cccs1)NNC(=S)NC(=O)c1ccc(F)c(F)c1	94.0	-27.1	0.0	/	-0.8
O=S(=O)(NCCS(=O)(=O)N1CCN(c2ccccc2)CC1)c1ccccc1	4.2	/	-0.5	/	/
CN1CCOc2cc(S(=O)(=O)Nc3ccc(F)cc3)ccc21	17.3	-50.5	1.8	-0.9%	4.9
COc1ccc(-c2nn(-c3ccccc3)cc2/C=C(\C#N)C(N)=O)cc1[N+](=O)[O-]	-1.0	/	6.1	6.1%	2.8
COCCn1c(SCC(=O)N(C)C2CCS(=O)(=O)C2)nc2ccccc2c1=O (centres undefined)	-10.3	/	3.5	-1.5%	0.7
COc1cccc(NC(=O)CSc2nc3ccccc3c(=O)n2CCCC(=O)N2CCCC2)c1	5.8	-49.7	1.4	-6.8%	-4.7
O=C(c1ccc(S(=O)(=O)N2CCC(c3nc4ccccc4s3)CC2)cc1)N1CCOCC1	3.7	/	0.4	/	/
COCCCNC(=O)CCC(=O)Nc1ccc2nc(N3CCOCC3)cc(C)c2c1	4.8	-32.7	-3.4	-5.8%	0.9
COc1ccc(C(=O)Cn2nnc(-c3cccs3)n2)cc1	-2.0	-1.6	11.7	-4.8%	5.1

(next part)
SMILES	Mtb bLac sens	YopH inh	RecA intein inh	Mtb growth	Arbovirus inh	others
COC(=O)c1cccnc1-n1c(=O)c2cccnc2n(Cc2cccc(OC)c2)c1=O	-5.9	-31.2	0.5	3.3%	-0.5	Arbovirus inh repeat=-1.5
CC(=O)c1ccc(NC(=O)CSCC(=O)Nc2ccc3ccccc3c2)cc1	90.7	-14.2	3.3	51µM*	-6.5
O=C(NCc1ccccn1)c1ccc(CNS(=O)(=O)c2ccc(F)cc2)cc1	-1.0	-28.3	0.5	7.3%	-1.0
COc1ccc(-c2ccc(C(C)=O)cc2)cc1[C@H]1[C@@H]2C=CCC[C@@]2(C)C(=O)N1Cc1ccccc1	88.9	/	/	16.4%	/
O=C(C[C@H]1C(=O)N(Cc2ccccc2)C[C@@H]1Cc1ccccc1)Nc1ccccc1	-3.1	/	7.5	/	/
O=C(O)CC(NC(=O)OCc1ccccc1)c1ccc(Br)cc1 (centres undefined)	-13.2	-24.0	4.5	18.3%	-2.6
COc1cccc(N2CC(=O)Nc3c(oc4nc(-c5ccccc5)cc(C)c34)C2=O)c1	53.6	/	0.7	-7.2%	/
Cc1nc(N)nc(Nc2ccc(C#N)cc2)c1Br	-1.3	/	-2.0	-17.1%	/
Cc1ccc(CN2CCN(c3ncccn3)CC2)c(C)c1	-2.0	/	0.6	/	/
CCOC(=O)C1CCCN(C(=O)c2ccc3oc(CCc4ccccc4)nc3c2)C1 (centres undefined)	2.0	/	0.2	/	/

Screening data from PubChem.
